# High-throughput results as filed in PubChem BioAssay.
# INS promoter inh – TRM-6 insulin promoter activity inhibition; TRM-6 cells (human fetal islet line), insulin promoter-eGFP reporter, imaging; reporter expression induced with tamoxifen; inhibition, % at 2 µM; actives 0.9% (n = 130,000); AID 1273;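 active = inhibition above the mean plus 3 SD, with well images judged a real hit on visual review, cut at about 60% in these data, passing the limit was not always enough; inconclusive = inhibition over the cutoff but images rejected on review; inactive = inhibition not above the cutoff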
# PKD1 inh – inhibitors of human PKD1 kinase. Q15139. PKD1 kinase fluorescence polarization assay. inhibition, %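 (about 10 µM by stock and volumes)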. actives 0.056% (n = 200,000). AID 797;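 active = inhibition of 50% or more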;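 also: controls were vehicle for no effect and a reference inhibitor for full effect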
# GALR2 ag – agonists of human galanin receptor 2 (GALR2) | GALR2-expressing cells, agonist activation read-out | activation, %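 (tested at 5 µM)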 | actives 0.48% (n = 140,000) | AID 803;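 active = above mean plus 3 SD of all compounds, about 5% in these data, not always enough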;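 also: 0% = vehicle buffer wells and 100% = reference agonist at full effect; tested in CHO reporter cells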
# Target sequence (O43603 whole entry, looked up): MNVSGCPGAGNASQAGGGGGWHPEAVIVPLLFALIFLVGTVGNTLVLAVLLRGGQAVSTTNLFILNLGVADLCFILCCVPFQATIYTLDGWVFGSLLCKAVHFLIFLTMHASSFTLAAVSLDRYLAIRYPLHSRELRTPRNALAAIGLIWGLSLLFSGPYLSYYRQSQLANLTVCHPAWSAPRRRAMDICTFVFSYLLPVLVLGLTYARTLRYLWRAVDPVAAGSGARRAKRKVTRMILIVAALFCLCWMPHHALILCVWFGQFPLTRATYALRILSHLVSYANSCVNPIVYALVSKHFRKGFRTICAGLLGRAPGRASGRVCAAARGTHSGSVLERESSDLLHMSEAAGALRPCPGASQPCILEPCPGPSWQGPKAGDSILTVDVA
# RGS16-Gao – regulators of human RGS16-Galphao interaction; binding response (% of control), % at 10 µM; AID 1441; actives 0.38% (n = 220,000); bead-based flow cytometry RGS16-Galphao binding, fluorescence; actives lie on both sides; O15492+P09471;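 active = below 25% or above 175%, edge rows of some plates excepted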;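 also: Galphao activated by GDP with aluminum fluoride before binding; 100% = wells without compound and 0% = beads without RGS; some results beyond the cut were filed as inactive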
# Target sequence (O15492 whole entry, looked up): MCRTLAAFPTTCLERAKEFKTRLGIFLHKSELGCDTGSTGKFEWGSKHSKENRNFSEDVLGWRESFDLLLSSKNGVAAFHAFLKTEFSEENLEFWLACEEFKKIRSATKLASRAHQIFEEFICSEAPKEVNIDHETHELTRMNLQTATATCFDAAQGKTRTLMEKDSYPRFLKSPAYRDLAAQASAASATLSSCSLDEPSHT
# Target sequence (P09471 whole entry, looked up): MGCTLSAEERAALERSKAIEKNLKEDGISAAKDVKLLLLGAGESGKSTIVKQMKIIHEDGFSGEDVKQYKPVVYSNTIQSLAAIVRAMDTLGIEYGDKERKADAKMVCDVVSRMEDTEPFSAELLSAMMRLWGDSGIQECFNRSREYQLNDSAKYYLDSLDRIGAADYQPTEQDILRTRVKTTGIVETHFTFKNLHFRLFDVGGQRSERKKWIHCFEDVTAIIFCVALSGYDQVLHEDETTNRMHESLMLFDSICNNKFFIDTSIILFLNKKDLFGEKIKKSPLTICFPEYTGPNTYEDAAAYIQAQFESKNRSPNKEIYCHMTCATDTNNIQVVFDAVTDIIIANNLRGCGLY
# HSV augment – increases HSV replication in cells | HSV replication augmentation in cells, fold increase | AID 1956 | actives 0.005% (n = 220,000) | maximum fold increase;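 active = peak rise of 1.5-fold or more in the series; inconclusive = self-fluorescent or not available for retest; tested in PC3 cells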;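 also: first round at 10 µM; read as green reporter fluorescence; hits show the peak of a series up to 25 µM; 1 = signal of infected wells without compound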
# INS promoter inh cell count – also measured in INS promoter inh; calls as there; normalized cell count, %; measured here: cell count, toxicity; reference of the scale not given here;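 cells exposed to compound for 48 h; stained nuclei by imaging scaled within each plate; lower means fewer cells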
# HSV augment primary fold – also measured in HSV augment; calls as there; fold increase; compound at 10 µM; measured here: primary screen fold increase 10 uM; tested in PC3 cells;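 GFP signal in the first replicate; 1 = infected wells without compound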
# * marks the source's active call; other numbers are inactive results; i = inactive; ? = inconclusive; nt = not tested or not shown.
SMILES,INS promoter inh,INS promoter inh cell count,PKD1 inh,GALR2 ag,RGS16-Gao,HSV augment,HSV augment primary fold
COC(=O)c1cc2sccc2n1CC(=O)N(C)c1ccccc1,nt,nt,7.2,nt,100.8,i,0.89
CCOc1cc(/C=C/C(=O)Nc2ccc(C(=O)NCCN(CC)CC)cc2)ccc1OCC(C)C,28.6,80.5,6.2,nt,104.9,i,0.58
Cc1nc2sc(C(=O)c3ccccc3)c(N)c2c(C)c1C,nt,nt,0.3,nt,94.5,i,0.85
CCOC(=O)CON1C(=O)C(=O)N(OCC(=O)OCC)C2CCCCC21 (configuration not stated),nt,nt,6.4,nt,109.7,i,1.01
COc1ccccc1OCCC(=O)OCC(=O)c1[nH]c(C)c(C(C)=O)c1C,nt,nt,-4.9,nt,102.5,i,0.94
Cc1c(C(=O)OC(C)C)[nH]c2c1C(=O)CCC2,-425.0,70.6,-3.9,-2.8,91.7,i,0.89
CCN(Cc1ccncc1)C(=S)Nc1ccccc1,nt,nt,-5.7,nt,107.6,i,1.03
CCCCSCc1cc(C(=O)O)oc1C(C)(C)C,17.6,102.2,1.8,nt,100.6,i,1.25
CCc1cccc(CC)c1NC(=O)c1cc(CN2C(=O)c3ccccc3C2=O)ccc1OC,22.1,103.1,-2.5,-0.5,29.5,i,1.03
Cc1ccc2cccc(OC(=O)/C=C\c3ccccc3)c2n1,-14.3,101.0,-4.9,nt,101.7,i,1
O=C(N=C1N=C2C=CC=CN2Cc2ccccc21)c1ccc(S(=O)(=O)N2CCOCC2)cc1,5.6,104.2,0.3,nt,107.8,i,1.09
CCOc1ccccc1NC(=O)CN(C)S(=O)(=O)c1cnc[nH]1,-7.7,110.0,-2.3,nt,95.3,nt,nt
Cc1cc(C)c2nc(NNC(=O)c3ccc(S(=O)(=O)N4CCCC(C)C4)cc3)sc2c1 (configuration not stated),56.1,130.0,1.0,17.9*,95.3,nt,nt
COc1ccc(CCn2c(N3CCOCC3)nc3c2c(=O)[nH]c(=O)n3C)cc1,-100.0,119.7,-1.5,0.1,106.6,i,0.78
Cc1ccccc1NS(=O)(=O)c1ccc(C)c(C(N)=O)c1,46.5,131.7,-0.4,-2.2,97.8,i,1.01
COC(=O)CCC(=O)Oc1ccc(OC(=O)CCC(=O)OC)cc1,31.2,96.4,-0.8,-1.8,133.3,i,0.95
CC(C)CN(CC(C)C)S(=O)(=O)N1CCC(C(=O)NCc2ccc(F)cc2)CC1,53.9,73.4,-14.0,-2.0,107.1,i,0.86
CCOC(=O)c1cnc(SCC(=O)c2ccc(C)cc2)nc1N,62.5,128.9,-3.0,-2.1,96.6,i,1
Cc1ccc(C(=O)NCC(=O)NCC(=O)OCC(=O)c2cccs2)cc1,-471.4,72.8,-0.2,1.5,95.0,i,0.96
COC(=O)c1cc(NC(=O)C2C3C=CC(C3)C2C(=O)O)cc(C(=O)OC)c1 (configuration not stated),17.6,77.9,-3.5,-3.8,98.8,i,1.15
Cc1ccc(S(=O)(=O)N2CCOCC2)cc1NC(=O)CN1CCC(Cc2ccccc2)CC1,nt,nt,2.5,nt,100.7,i,1.08
CCCC(=O)Nc1nc2ccc(NC(=O)c3cccnc3)cc2s1,35.0,80.2,-1.9,-2.1,103.8,i,0.79
CCCN(CCC)C1CC(=O)N(Cc2ccccc2)C1=O (configuration not stated),-181.5,62.9,-4.0,0.2,103.8,i,0.9
O=C(COc1ccccc1)N1CCN(C(=O)c2cccc(F)c2)CC1,nt,nt,-8.0,-1.2,103.0,i,1.01
COc1ccc(S(=O)(=O)N2CCN(C(=O)COc3ccc4c(C)cc(=O)oc4c3)CC2)cc1,nt,nt,20.3,0.8,100.3,i,1
# Next section
SMILES,INS promoter inh,INS promoter inh cell count,PKD1 inh,GALR2 ag,RGS16-Gao,HSV augment,HSV augment primary fold
Cc1ccc(-c2cc(C(=O)N3CCc4ccccc4C3)no2)cc1,31.6,107.5,-10.4,nt,99.4,i,0.96
O=C(/C=C/Nc1ccccc1O)c1ccco1,nt,nt,nt,nt,101.5,i,1.03
O=C(NCCSCc1ccccc1)c1ccccc1,-36.5,84.5,1.3,-1.1,107.0,i,1.08
Cc1ccc2cccc(OCc3nnc(SCC(=O)O)n3C)c2n1,-21.4,93.9,2.0,nt,99.2,i,0.92
NNC(=O)/C(=C\c1ccc(Br)cc1)NC(=O)c1cccs1,nt,nt,-4.1,nt,103.1,i,1.05
COc1ccc(N(C(=O)c2ccco2)C(C(=O)NC2CCCCC2)c2ccccc2)cc1 (configuration not stated),-40.0,116.3,1.6,-1.8,91.5,i,0.87
Cc1ccc(-c2cc(C(F)(F)F)n3ncc(C(=O)O)c3n2)cc1,-13.9,65.2,2.9,-0.7,105.0,i,0.91
CNS(=O)(=O)c1cccc(C(=O)OCC(=O)Nc2ccc(Cl)cn2)c1,nt,nt,nt,nt,94.2,i,0.95
CC(C)OC(=O)c1c(NC(=O)c2ccco2)sc2c1CCCCC2,16.7,147.4,-0.3,-0.7,115.5,i,0.997
CNc1oc(-c2ccc(C)cc2)nc1P(=O)(c1ccccc1)c1ccccc1,nt,nt,4.9,-1.3,101.4,i,0.98
CCSc1nc2sc3c(c2c(=O)[nH]1)CCc1ccccc1-3,-32.1,114.2,3.2,-0.8,83.0,i,0.94
O=[N+]([O-])c1ccc(N/N=C/c2ccccc2)c(F)c1,nt,nt,1.5,0.7,97.1,?,nt
Cc1cccc(NC(=O)CCn2nc(C)cc2C)c1,nt,nt,0.4,-1.9,102.5,i,0.88
O=C(COc1ccc(Cl)cc1)OCC(=O)N1CCCCCC1,30.3,69.4,-13.3,-0.9,102.4,i,1.06
COc1ccc(C(=O)c2cc(C(C)=O)c(Nc3ccccc3)s2)cc1,-3.7,110.3,-2.5,-0.4,100.4,i,0.77
Cc1ccc(-c2c(C(=O)NC(C)C)oc(=O)c3ccccc23)cc1,8.3,112.5,-1.6,nt,93.0,i,0.95
Cc1cc(NC(=O)CCC(=O)N(c2ccccc2)C(C(=O)NC2CCCC2)c2cccs2)no1 (configuration not stated),-118.2,114.2,0.5,-0.9,94.7,i,1.03
COc1ccc(N(CC(O)Cn2c(C)nc3ccccc32)S(=O)(=O)c2ccccc2)cc1 (configuration not stated),-68.8,53.1,-1.9,-0.3,126.0,i,0.96
Cc1ccc(C(=O)OCC(=O)NCCC2=CCCCC2)cc1N,-75.0,142.6,-5.6,nt,106.1,i,1.05
CO/N=C(/c1nonc1N)N1CCN(c2ccc([N+](=O)[O-])cc2)CC1,nt,nt,1.5,-5.7,103.2,i,1.03
O=C(Cc1cccs1)NNC(=O)c1ccc(F)cc1,-16.7,73.8,7.8,-1.7,109.9,i,1.07
COc1cc(-c2nnc(SCC(=O)OC3CCCCC3)o2)cc(OC)c1OC,nt,nt,1.6,-0.9,107.0,i,1
Cc1c(C)c(C)c(S(=O)(=O)n2[nH]c(=O)c(CCO)c2C)c(C)c1C,nt,nt,1.4,nt,104.5,i,0.98
CC1=C(C#N)C(=O)N(C)C(C)(C)C1,-3.0,109.1,-3.8,-1.2,82.4,i,0.957
CC(NC(=S)NCc1ccc(F)cc1)C12CC3CC(CC(C3)C1)C2 (configuration not stated),-35.3,83.1,-1.7,nt,101.9,i,1.07
# Continued:
SMILES,INS promoter inh,INS promoter inh cell count,PKD1 inh,GALR2 ag,RGS16-Gao,HSV augment,HSV augment primary fold
CC(=O)N[C@@H](Cc1ccc(OC(F)(F)F)cc1)C(=O)O,nt,nt,nt,nt,98.6,i,0.92
Cc1ccc(N2C(=O)C3C4C=CC(CNC(=S)N5CCN(c6ccccc6)CC5)(O4)C3C2=O)cc1 (configuration not stated),nt,nt,5.0,nt,101.1,i,0.97
CSC1=NC2C(N1)N(C)C(=O)N2C (configuration not stated),0.0,66.7,-2.9,-0.8,121.8,i,0.87
O=C(NNC(=O)c1c(F)cccc1F)c1ccccc1OC(F)(F)F,nt,nt,nt,nt,102.9,i,1.09
CN1CCN(C(=S)Nc2ccc(Cl)cc2Cl)CC1,16.1,125.6,4.5,0.2,105.4,i,0.81
CCn1c(SCC(=O)N2CCN(c3ccccc3)CC2)nnc1-c1cc2cc(Cl)ccc2o1,-8.1,115.8,-1.8,-0.5,103.2,i,1.03
CCCc1ccccc1OCCNC(C)=O,-193.1,54.0,-1.0,-1.8,93.3,i,0.97
Cn1c(SCC(N)=O)nnc1-c1ccc(C(C)(C)C)cc1,nt,nt,4.2,nt,88.0,i,0.85
CCOCCN1CCN(c2c(CC)c(C)nc3cc(-c4cc(OC)cc(OC)c4)nn23)CC1,33.3,141.8,-5.0,0.0,74.5,i,0.88
CC1=C(C)NC(=S)SC1,6.1,111.8,-4.8,0.2,101.9,i,0.96
Cc1c(Cl)cccc1NC(=O)CCC(=O)NNC(=O)CCC(=O)O,25.0,66.1,-3.7,nt,98.8,i,1.02
COc1ccccc1-c1nnc(SC(C(=O)c2c[nH]c3ccccc23)c2ccccc2)n1C (configuration not stated),nt,nt,12.0,-1.1,102.4,i,0.97
CC(C)[C@H](NC(=O)c1ccco1)C(=O)NC12CC3CC(CC(C3)C1)C2,nt,nt,0.4,nt,116.5,i,1.06
COC(=O)C1CCN(C(=O)COC(=O)[C@@H]2CC(O)CN2S(=O)(=O)c2ccc3c(c2)OCCO3)CC1 (some centres not stated),10.3,107.0,-3.7,-0.5,102.3,i,1.04
O=C(Cc1ccc(F)cc1)Nc1nnc(SCC(=O)NC2CCCC2)s1,nt,nt,-6.9,nt,104.5,i,0.99
CC1/C(=N/O)CC(c2ccco2)NC1c1ccco1 (configuration not stated),18.8,115.8,-7.0,-1.3,111.4,i,1
O=C(NCCC1=CCCCC1)C1CCC(CNc2c(N3CCCCC3)c(=O)c2=O)CC1 (configuration not stated),nt,nt,nt,nt,106.0,i,0.97
Clc1ccc(N=C2SCCS2)cc1,nt,nt,nt,nt,101.4,i,1.07
COC(=O)c1ccc(NC(=O)CNc2ccccc2)cc1,nt,nt,9.4,nt,103.3,i,0.97
CCCN1C2CCCC1CC(NC(=S)Nc1ccc(OC)cc1)C2 (configuration not stated),nt,nt,-5.7,nt,102.3,i,0.96
O=S(=O)(Nc1nc2ccccc2nc1Cl)c1ccc2c(c1)OCCO2,nt,nt,7.2,nt,101.6,i,1
O=C1CC(c2ccco2)=Nc2ccccc2N1,13.9,36.9,-6.0,-0.8,101.6,i,0.79
CCOC(=O)c1ccccc1NS(=O)(=O)c1ccc(OC)cc1,-12.5,108.2,-7.8,-4.3,57.5,i,0.69
CCOc1ccc(C(=O)c2cc([N+](=O)[O-])ccc2Cl)cc1,11.6,41.3,-8.3,-0.7,57.2,i,1.05

# Single records, from the list above:
# Shown for CC1/C(=N/O)CC(c2ccco2)NC1c1ccco1 (configuration not stated) → INS promoter inh: 18.8; INS promoter inh cell count: 115.8; PKD1 inh: -7.0; GALR2 ag: -1.3; RGS16-Gao: 111.4; HSV augment: i; HSV augment primary fold: 1
# Shown for O=C(NCCC1=CCCCC1)C1CCC(CNc2c(N3CCCCC3)c(=O)c2=O)CC1 (configuration not stated) → INS promoter inh: nt; INS promoter inh cell count: nt; PKD1 inh: nt; GALR2 ag: nt; RGS16-Gao: 106.0; HSV augment: i; HSV augment primary fold: 0.97

# By substructure: those above with a thiophene ring, fused or not (nine)
SMILES,INS promoter inh,INS promoter inh cell count,PKD1 inh,GALR2 ag,RGS16-Gao,HSV augment,HSV augment primary fold
COC(=O)c1cc2sccc2n1CC(=O)N(C)c1ccccc1,nt,nt,7.2,nt,100.8,i,0.89
Cc1nc2sc(C(=O)c3ccccc3)c(N)c2c(C)c1C,nt,nt,0.3,nt,94.5,i,0.85
Cc1ccc(C(=O)NCC(=O)NCC(=O)OCC(=O)c2cccs2)cc1,-471.4,72.8,-0.2,1.5,95.0,i,0.96
NNC(=O)/C(=C\c1ccc(Br)cc1)NC(=O)c1cccs1,nt,nt,-4.1,nt,103.1,i,1.05
CC(C)OC(=O)c1c(NC(=O)c2ccco2)sc2c1CCCCC2,16.7,147.4,-0.3,-0.7,115.5,i,0.997
CCSc1nc2sc3c(c2c(=O)[nH]1)CCc1ccccc1-3,-32.1,114.2,3.2,-0.8,83.0,i,0.94
COc1ccc(C(=O)c2cc(C(C)=O)c(Nc3ccccc3)s2)cc1,-3.7,110.3,-2.5,-0.4,100.4,i,0.77
Cc1cc(NC(=O)CCC(=O)N(c2ccccc2)C(C(=O)NC2CCCC2)c2cccs2)no1 (configuration not stated),-118.2,114.2,0.5,-0.9,94.7,i,1.03
O=C(Cc1cccs1)NNC(=O)c1ccc(F)cc1,-16.7,73.8,7.8,-1.7,109.9,i,1.07
